Screening data deposited in PubChem BioAssay by several laboratories.
RN4220 kill – kills Staphylococcus aureus RN4220; inhibition, % (no concentration beside the values); actives 0.33% (n = 330,000); S. aureus RN4220 growth, OD600, 16 h;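 active means z-score of -3 or lower and OD600 up to 0.18 on both plates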;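 further: plate controls were untreated cells for no effect and reference antibiotic for full effect; stock transfer was 100 nL into about 80 µL; one replicate is shown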
Bead autofluor – flagged as autofluorescent in microsphere protease counterscreen; compound autofluorescence counterscreen, microsphere flow cytometry; stronger effect = higher value; fluorescence intensity (concentration not given with the values); actives 3.1% (n = 360,000);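 active means at least 3 SD above the mean of all compounds, about 16000 in these data; inconclusive means too few beads counted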;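 further: 100 nL of 1 mM stock went into each well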
BJeLR lethal – BJeLR cell viability loss. AID 1554. inhibition, % (concentration not given with the values). actives 0.17% (n = 300,000). BJeLR (HRASV12) viability, CellTiter-Glo ATP luminescence, 48 h; reference of the scale not given here;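 active means replicate mean above 50%; inconclusive means above 50% but judged a plate artefact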;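 further: 50 nL library stock added to about 25 µL; numbers are from one replicate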
Mtb hypoxia rep – Mtb hypoxia fluorescent reporter inhibition; AID 1159583; fluorescence inhibition, % (concentration not given with the values); actives 0.1% (n = 300,000); M. tuberculosis hypoxia-regulated fluorescent reporter, fluorescence;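 active means 35 to 45% if threefold the growth effect, above 45% if 1.5-fold the growth effect; inactive means the rest, general growth blockers included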;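 further: wells of about 50 µL received 100 nL stock; 0% = vehicle wells and 100% = reference inhibitor wells; whole bacteria with a GFP reporter of the hypoxia response; strong numbers were not always called active; many hits fall short of the cut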
ugtP null kill – kills S. aureus RN4220 lacking UgtP | S. aureus RN4220 ugtP deletion, OD600 growth, 16 h; some inactives read as strong as hits | growth inhibition, % (concentration not given with the values) | actives 0.54% (n = 330,000);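 active means z-score under -3 and OD600 up to 0.15 on both plates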;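 further: plate controls were untreated wells for no effect and antibiotic for full effect; wells of about 80 µL received 100 nL stock; the first replicate is given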
PrP UTR inh – inhibition of PrP 5' UTR reporter expression | actives 0.35% (n = 340,000) | cell-based PrP 5' UTR mRNA reporter, plate reader | inhibition, % (concentration not given with the values);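 active means every replicate at 50% or more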;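 further: 0 = median of the neutral control wells; tested in H4 reporter cells; numbers are from one replicate; inactives centre near -14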
Mtb hypoxia rep growth – further read-out of Mtb hypoxia rep, marked with its call; growth inhibition, %; measured here: M. tuberculosis growth (absorbance);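 0% = vehicle and 100% = reference antibiotic; read after six days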
Numbers without * were called inactive; ? = inconclusive; / = no result given.

1: Cc1ccc(OCCCCN2CCCC(C)C2)c([N+](=O)[O-])c1 (stereo not drawn)
2: COC(=O)c1cc(Br)c(N)cc1OC
3: Cn1c(-c2ccc(F)cc2)cnc1SCC(=O)N1CCCCC1
4: O=[N+]([O-])c1ccc(C=NNC(=S)Nc2ccccc2C(F)(F)F)o1
5: CC1(c2ccccc2)NC(=O)N(CC(=O)Nc2cc(C(F)(F)F)ccc2N2CCCCC2)C1=O (stereo not drawn)
6: COc1ccc(NC(=O)c2ccco2)c([N+](=O)[O-])c1
7: Cc1cc(C)n2nc(-c3cnn(C)c3C(F)(F)F)c(Cl)c2n1
8: COc1ccc(C(C)=NN2C(C)CCCC2C)c(OC)c1 (stereo not drawn)

Assay by compound	1	2	3	4	5	6	7	8
RN4220 kill	3.6	1.4	-0.9	0.8	-5.7	6.5	5.0	1.8
BJeLR lethal	/	0	-2	/	/	1	-1	/
Mtb hypoxia rep	10	12	-9	14	1	8	6	15
Mtb hypoxia rep growth	11	10	-1	6	6	4	6	8
PrP UTR inh	-16	1	-29	/	9	-51	-16	/
ugtP null kill	4	10	-9	14	-16	-3	-10	4
Bead autofluor	3894	4638	10286	/	5610	1885	9165	/

9: CC(C)(C)NC(=O)Cn1c(=O)oc2cc(S(=O)(=O)N3CCc4ccccc43)ccc21
10: Cc1cc(NCc2ccco2)nc(N2CCC(C(=O)NC3CCCCC3)CC2)n1
11: CCCc1ccc2oc(C(=O)N(C)Cc3nccs3)c(C)c2c1
12: Cn1c(SCc2ccc(Br)cc2)nc2c(c1=O)SCC2
13: N#Cc1ccccc1NC(=O)COC(=O)CSc1nc2ccccc2o1
14: Cc1ccc(-c2nc(CN(C)Cc3ccc4nccnc4c3)c(C)o2)s1
15: O=C(CNC(=O)c1ccccc1F)Nc1ccc2c(c1)CCC2
16: C=CCn1c(=O)[nH]c2nc3cc(N=CN(C)C)c(C)cc3nc2c1=O

Assay by compound	9	10	11	12	13	14	15	16
RN4220 kill	-0.2	3.8	2.4	/	0.5	3.8	7.0	6.1
BJeLR lethal	4	-3	-3	-4	-7	-5	/	18
Mtb hypoxia rep	/	7	7	/	/	-16	3	0
Mtb hypoxia rep growth	/	1	8	/	/	-15	-2	3
PrP UTR inh	1	-25	-63	-14	2	32	-10	-19
ugtP null kill	-1	7	12	/	5	5	6	1
Bead autofluor	5582	4584	6682	3683	2134	3335	3636	5078

17: COc1cccc(N(C(=O)c2snc(C(N)=O)c2N)C(C(=O)NCC2CCCO2)c2ccc3ncccc3c2)c1 (stereo not drawn)
18: CCCCN(C)c1nc(-c2ccco2)c2c(c1C#N)CC(C)(C)OC2
19: CC(=O)c1ccc(N2CCN(C(=O)COc3ccc(F)cc3)CC2)c(F)c1
20: CCOc1cc(/C=C2/C(=O)N(c3ccccc3)N=C2C)ccc1OC(=O)c1ccco1
21: COCCN(Cc1ccco1)C(=O)Cn1ncc2c(=O)oc3ccccc3c21
22: Cn1cccc1/C=C1/C(=O)NC(=O)N(Cc2ccccc2)C1=O
23: CC1CCCN(Cc2nc3c(c(=O)n(C)c(=O)n3C)n2CC(N)=O)C1 (stereo not drawn)
24: COc1ccc(NC2=C(NC(C)=O)C(=O)c3ccccc3C2=O)cc1

Assay by compound	17	18	19	20	21	22	23	24
RN4220 kill	0.3	1.7	9.8	7.2	2.2	/	4.1	25
BJeLR lethal	-4	-2	0	-1	-2	-9	1	6
Mtb hypoxia rep	14	/	4	2	-5	/	-3	2
Mtb hypoxia rep growth	7	/	1	5	4	/	7	-11
PrP UTR inh	-15	-11	-14	-19	-22	-10	-4	-21
ugtP null kill	5	18	3	3	2	/	5	2
Bead autofluor	3001	4733	3031	?	4040	2310	16667*	3442

Twelve entries from above, as tab-separated lines:
#	Molecule	RN4220 kill	BJeLR lethal	Mtb hypoxia rep	Mtb hypoxia rep growth	PrP UTR inh	ugtP null kill	Bead autofluor
1	Cc1ccc(OCCCCN2CCCC(C)C2)c([N+](=O)[O-])c1 (stereo not drawn)	3.6	/	10	11	-16	4	3894
2	COC(=O)c1cc(Br)c(N)cc1OC	1.4	0	12	10	1	10	4638
3	Cn1c(-c2ccc(F)cc2)cnc1SCC(=O)N1CCCCC1	-0.9	-2	-9	-1	-29	-9	10286
4	O=[N+]([O-])c1ccc(C=NNC(=S)Nc2ccccc2C(F)(F)F)o1	0.8	/	14	6	/	14	/
5	CC1(c2ccccc2)NC(=O)N(CC(=O)Nc2cc(C(F)(F)F)ccc2N2CCCCC2)C1=O (stereo not drawn)	-5.7	/	1	6	9	-16	5610
6	COc1ccc(NC(=O)c2ccco2)c([N+](=O)[O-])c1	6.5	1	8	4	-51	-3	1885
7	Cc1cc(C)n2nc(-c3cnn(C)c3C(F)(F)F)c(Cl)c2n1	5.0	-1	6	6	-16	-10	9165
8	COc1ccc(C(C)=NN2C(C)CCCC2C)c(OC)c1 (stereo not drawn)	1.8	/	15	8	/	4	/
9	CC(C)(C)NC(=O)Cn1c(=O)oc2cc(S(=O)(=O)N3CCc4ccccc43)ccc21	-0.2	4	/	/	1	-1	5582
10	Cc1cc(NCc2ccco2)nc(N2CCC(C(=O)NC3CCCCC3)CC2)n1	3.8	-3	7	1	-25	7	4584
11	CCCc1ccc2oc(C(=O)N(C)Cc3nccs3)c(C)c2c1	2.4	-3	7	8	-63	12	6682
12	Cn1c(SCc2ccc(Br)cc2)nc2c(c1=O)SCC2	/	-4	/	/	-14	/	3683

(more compounds)
25: O=C(O)CCC(=O)Nc1ccc(NC(=O)c2ccc(Cl)cc2Cl)c(Cl)c1
26: CC1CC(C)CN(CC(O)COCc2ccccc2)C1 (stereo not drawn)
27: COc1ccc(C2C(C#N)=C(N)Oc3cc(O)ccc32)cc1Cl (stereo not drawn)
28: c1ccc(CN2CCN(c3nc(-c4ccccn4)nc4ccccc34)CC2)cc1
29: COc1ccc(-c2nsc3c(N4CCN(S(=O)(=O)c5ccccc5F)CC4)ncnc23)cc1
30: COC(=O)c1nnn(-c2nonc2N)c1CSc1nc2ccccc2s1
31: CC1NS(=O)(=O)C2CC3C=C[C@]2(O3)C1OC(=O)c1ccc(C(C)(C)C)cc1 (stereo partly drawn)
32: O=C(CSc1nnc(-c2ccc(Cl)cc2)n1Cc1ccco1)c1cccs1

Assay by compound	25	26	27	28	29	30	31	32
RN4220 kill	1.9	1.0	13	3.4	0.9	-3.9	8.1	6.1
BJeLR lethal	1	0	4	13	4	1	/	0
Mtb hypoxia rep	11	-3	12	/	4	/	10	-5
Mtb hypoxia rep growth	1	2	4	/	-4	/	9	2
PrP UTR inh	-7	-11	-2	-6	-17	-33	/	-1
ugtP null kill	4	2	7	8	22	7	-1	-24
Bead autofluor	3468	4411	4572	3316	6727	2371	/	9198

33: O=C(CCC(=O)c1ccc(Cl)cc1)OCc1nc2ccsc2c(=O)[nH]1
34: CN1CCN(c2ccccc2NC(=O)c2cccs2)CC1
35: COc1ccc(CNC(=O)C(C)Sc2nc3ccccc3c(=O)n2CC2CCCO2)cc1 (stereo not drawn)
36: Cn1c(=O)c2[nH]c(-c3ccc(S(=O)(=O)O)cc3)nc2n(C)c1=O

Assay by compound	33	34	35	36
RN4220 kill	5.2	0.2	0.5	6.8
BJeLR lethal	4	1	/	10
Mtb hypoxia rep	-7	3	2	5
Mtb hypoxia rep growth	11	-1	-1	-1
PrP UTR inh	-8	-32	-31	-45
ugtP null kill	4	-2	3	-2
Bead autofluor	/	5818	3866	5924
